Source: PubChem (ICCB-Longwood Screening Facility, Harvard Medical School)
Ab BasE inh = BasE siderophore enzyme inhibitors, primary screen, biochemical, Acinetobacter baumannii ATCC 17978, fluorescence polarization; inhibition, % (concentration not given with the values); 84,000 tested, 0.1% active; purified BasE, fluorescence polarization binding displacement;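 active = both replicates above 25% with normal brightness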;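 note: 0% = negative plate control signal and 100% = positive plate control signal; stock transfer was 100 nL into about 30 µL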
KSHV LANA nucl = inhibitors of KSHV LANA-nucleosome binding, primary screen, biochemical, fluorescence polarization, FITC-LANA1-23, chicken nucleosomes. FITC-LANA1-23 / chicken nucleosome fluorescence polarization; hits give low values. z-score (no concentration beside the values). 51,000 tested, 0.3% active;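 active = both repeat wells score below -2 in polarization z-score versus plate sample wells, excluding overly bright wells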;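 note: 100 nL library stock added to about 30 µL; numbers are from one replicate; some results filed as inactive read as strong as hits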
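Material: Purified chicken nucleosomes with FITC-labelled LANA N-terminal peptide (1-23) | Reagent: 50 nM FITC-LANA1-23 probe | Medium: TEN-BT buffer, pH 7.5 | Times: 10–45 min incubation at room temperature | Detection: Fluorescence polarization | Replication: Duplicates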
Active calls of the source: *; x = no result given. Only part of the results is shown, so the mix of outcomes need not match the whole.

SMILES,Ab BasE inh,KSHV LANA nucl
COc1ccc(-n2c(SCC(=O)c3cc4ccccc4o3)nc3ccccc32)cc1,-0.1,x
Cc1cc(N)n(-c2ccc(Cl)cc2)n1,2.2,x
NC(=S)C(=S)N1CCOCC1,-1.8,2.2
CCSC(=S)c1c(C)[nH]n(-c2ccccc2)c1=O,4.6,x
CCc1nnc(SCc2cc(=O)n3ccsc3n2)n1C,0.7,-0.71
O=C1CCc2ccc(NC(=O)C3CC3)cc2N1,0.9,-0.43
CCCN1C(=O)/C(=C/c2c(NCC)nc3ccccn3c2=O)SC1=S,5.3,0.34
CN1C(=O)/C(=C/c2cn(CC(=O)NCc3ccco3)c3ccccc23)C(=O)NC1=S,4.0,-0.18
O=C1C(=Cc2ccccc2)C(=O)N(c2ccccc2)C(=O)N1c1ccccc1,-2.2,x
COC(=O)C(C(=O)Nc1ccccc1C)C1CCCCCC1 (stereo unspecified),0.7,-0.64
N#CCCN(Cc1ccncc1)C(=S)NC1CC2C=CC1C2 (stereo unspecified),-0.1,-0.9
COc1cc(C=C2C(=O)NC(=O)NC2=O)cc(Br)c1OCc1c(C)no[n+]1[O-],3.2,x
CC(=O)Nc1ccc(OCc2ccc3c(c2)OCO3)cc1,-1.1,1.2
Cc1ccc(-c2nnc(C3CCN(S(=O)(=O)c4ccc(Cl)s4)CC3)o2)cc1,-0.8,-0.22
Cn1c2c(c(=O)c3ccccc31)CCCC2,2.9,-0.97
Cc1ccc(-n2c(C)cc(/C=C(/C#N)c3ccccc3)c2C)cc1,-2.4,-0.1
NC1=NC(=O)C2(COC(c3ccccc3Cl)OC2)S1 (stereo unspecified),6.3,-0.11
O=C(Nc1c(C(=O)Nc2ccc3c(c2)OCO3)oc2ccccc12)c1ccco1,-3.7,1.7
CN1CCC(N(C)C(=O)c2ccc3nccnc3c2)CC1,3.2,0.75
CCOC(=O)c1sc(SC)nc1NS(=O)(=O)c1cc(C(F)(F)F)cc(C(F)(F)F)c1,1.5,x
CCOC(=O)N1CCC(=NNc2ccc(Cl)c(C(=O)O)c2)CC1,-1.9,x
COCCNc1ncnc2c1sc1nc(N3CCOCC3)c3c(c12)CCC3,-0.7,0.31
Cc1nc(SCC(=O)Nc2ccc(-c3ccccc3)cc2)c2c3c(sc2n1)CCC3,-2.2,x
CCSc1n[nH]c(-c2ccc(Cl)cc2)n1,0.6,-1.2
CCc1ccc(-n2c(N3CCN(c4ccccc4)CC3)nc3ccccc3c2=O)cc1,0.9,1.5
COc1ccccc1NC(=O)COC(=O)CCC1CCCC1,1.9,x
CCc1c(C)nc(N)n2c(SCc3ccc(C(F)(F)F)cc3)nnc12,3.6,0.86
CCOC(=O)C1CCN(CCC(C)(C)c2ccc(C)o2)CC1,-0.1,0.26
CCOC(=O)c1c[nH]c2c(C)c(Cl)ccc2c1=O,0.4,x
CCN(CC(=O)Nc1ccc2c(c1)OCCO2)c1nc(-c2cccnc2)nc2ccccc12,6.7,x
O=C(O)c1cc(-c2cccs2)nc2cc3c(cc12)OCCO3,0.0,-0.51
CSc1nc(COc2ccc(C(C)(C)C)cc2)nc(N)c1C#N,1.1,x
C/C(=N/OC(=O)c1ccccc1)c1cccs1,-1.8,-0.006
CCc1ccc(-n2c(SCC(=O)NC3CC3)nc3ccccc3c2=O)cc1,-0.5,x
CCOC(=O)Nc1c(C(=O)OCC)[nH]c2ccc(F)cc12,0.1,0.15
CCOC(=O)N1CCC2(CC1)C(C#N)=C(N)Oc1c2c(C)nn1-c1cccc(Cl)c1,-2.6,0.88
N/C(=N\C(=S)Nc1ccccc1)N1CCN(Cc2ccccc2)CC1,-1.7,-0.17
Cn1nccc1NC(=O)COCC(=O)O,1.2,x
CN(N)C(=O)Nc1ccccc1,-0.1,x
CC(C)(C)C(=O)CNS(=O)(=O)c1ccc(S(=O)(=O)NC2CCCCC2)cc1,0.6,-0.14
O=C(Nc1ccccc1)Nc1ccccc1SCCS(=O)(=O)c1ccc(Cl)cc1,-1.7,x
C1=C(c2ccccc2)Nc2nc3ccccc3n2C1c1ccccc1 (stereo unspecified),1.3,x
COC(=O)C1=C(Nc2ccccc2NS(=O)(=O)c2ccc(C(F)(F)F)cc2Cl)CSC1,0.2,x
Cn1c(=O)n(Cc2ccccc2)c(=O)c2c1nc(Cl)n2Cc1ccccc1,1.4,x
CCOc1ccc(OCC)c(NC(=O)CSc2nc3c(c(=O)n(C)c(=O)n3C)n2C(C)C)c1,-1.2,0.66
C=CCNC(=S)Nc1c(C)nn(CC)c1C,-2.7,0.089
CC(=O)Nc1cc2c(cc1C(=O)c1ccccc1)OCCO2,5.0,-0.33
CCn1c(SCC(=O)NC2CCCC(C)C2C)nnc1-c1ccccc1 (stereo unspecified),1.2,x
O=C(O)CCC1CCCCC1=O (stereo unspecified),-0.2,-0.4
Cc1cc(C(=O)NCC2(c3ccccc3)CCOCC2)oc1C,-2.5,-0.51
Brc1ccc(CSc2nncn2-c2ccccc2)cc1,-1.7,x
Cc1nc2ccccc2nc1N1CCC(C)CC1,0.8,0.34
O=C(CN1C(=O)C(c2ccccc2)Oc2cccnc21)NCc1ccccc1 (stereo unspecified),-2.6,2.3
Cc1ccc(-c2cc(C(=O)NCC3CCCO3)[nH]n2)cc1C (stereo unspecified),-1.6,x
Nc1[nH]ncc1-c1ccc(Cl)cc1,x,0.71
C=C(C)C1CCC(C)OC1c1ccccc1 (stereo unspecified),3.0,-0.79
CC1CC(C)CN(C(=O)c2cc(N(C)S(=O)(=O)c3ccccc3)ccn2)C1 (stereo unspecified),-1.2,-0.11
O=C(Nc1ccccc1)C1Cc2ccccc2CN1C(=O)c1ccco1 (stereo unspecified),0.2,x
N#Cc1cc[n+](CC(=O)c2cccs2)cc1,1.5,-0.25
Cc1ccc(NCCNc2ccc(C)cc2C)c(C)c1,1.3,0.32

Additional results follow:
SMILES,Ab BasE inh,KSHV LANA nucl
CC(C)(CC(=O)NC1CCN(Cc2ccccc2)CC1)Sc1ccc(Cl)cc1,x,-0.099
CCCSC1=C(N(C)C)C(=O)c2ccccc2C1=O,2.1,x
O=c1nc2c(-c3cccc(Cl)c3)n[nH]n2c2ccccc12,0.2,-0.57
C(=Nn1cncn1)c1ccc(N2CCOCC2)cc1,1.3,x
CNC(=O)CCC(=O)Nc1ccc(C)cc1,-2.4,2
CCOC(=O)c1c(-c2ccccc2)oc2ccc(OCC(=O)NN)cc12,-2.1,0.99
O=C(OCc1nc2ccccc2[nH]1)C1CCCCC1,-6.3,x
CCCCCC1=C(O)c2ccccc2C(=O)C1=O,3.5,0.017
CCCCn1c(N)c(N(CCC(C)C)C(=O)c2ccccc2F)c(=O)[nH]c1=O,1.7,x
NS(=O)(=O)c1ccc(NNC(=O)CCc2ccccc2)cc1,-1.4,-0.25
O=C(CNC(=O)C1CCCCC1)NC1=NCCS1,-0.5,x
O=C(CSc1nnc(NC2CC2)s1)N1CCCCC1,0.5,x
CCOC(=O)c1cc(Oc2nc(C)nc3sc4c(c23)CCCC4)cc(C(=O)OCC)c1,1.2,x
COC(=O)C1=CN(Cc2ccc(F)cc2)C=C(C(=O)OC)C1c1ccc2c(c1)OCO2,1.7,0.12
O=C(c1ccc(-n2ccnc2)cc1)c1ccc(-n2ccnc2)cc1,x,-0.39
O=C(c1ccccc1)c1cnc(-c2ccccc2)s1,x,-0.61
O=C(COC(=O)C1CCN(c2ccc(C(F)(F)F)cn2)CC1)NCc1ccccc1,-2.4,x
CC(C)(C)C(=O)COC(=O)c1ccc2c(c1)OCCO2,-0.5,x
O=c1c2c(ncn2C2CCCC2)n(Cc2ccccc2)c(=O)n1Cc1ccccc1,-0.5,x
Cc1noc(C)c1NC(=O)NCCOc1ccccc1,-1.7,0.23

Further entries follow:
structure	Ab BasE inh	KSHV LANA nucl
Cc1c(Cl)cn2c(=O)cc(CN3CCN(c4ccccc4O)CC3)nc2c1Cl	1.6	x
N#CC(c1ccc(C(=O)c2ccccc2)cc1)c1cccs1 (stereo unspecified)	x	0.071
COc1ccc2[nH]c(C)cc(=S)c2c1	0.6	x
OC1CNc2c(ccc3ccccc23)C1 (stereo unspecified)	1.2	x
COC(=O)C1=C(C)NC2=C(C(=O)CC(c3ccco3)C2)C1c1ccccc1Br (stereo unspecified)	13	-1.4
CCOC(=O)c1ccccc1NC(=O)Cn1ncc2c1-c1cc(C)ccc1OC2	10	0.73
CCNC(=S)N1C2CCCC1CC(NC(=O)C1CC1)C2 (stereo unspecified)	0.0	0.27
Cc1cccc(N=Cc2c(Nc3cccc(C)c3)nc3ccccn3c2=O)c1	-0.2	x
OC(Cn1nnc2ccccc21)c1ccccc1 (stereo unspecified)	0.7	x
COC(=O)C1CCN(C(c2ccc(F)cc2)c2ccc(F)cc2)CC1	-0.4	x
Cc1nn(C)c(Sc2ccc(Cl)cc2)c1C(N)=O	x	1.7
CN(C)/C=N/c1sc2c(c1C#N)CC(C)(C)NC2(C)C	1.8	-0.85

Six structures from above, arranged by number of heavy atoms, low to high:
structure	Ab BasE inh	KSHV LANA nucl
CCSc1n[nH]c(-c2ccc(Cl)cc2)n1	0.6	-1.2
Cc1noc(C)c1NC(=O)NCCOc1ccccc1	-1.7	0.23
Cc1cc(C(=O)NCC2(c3ccccc3)CCOCC2)oc1C	-2.5	-0.51
N/C(=N\C(=S)Nc1ccccc1)N1CCN(Cc2ccccc2)CC1	-1.7	-0.17
CCOC(=O)c1c(-c2ccccc2)oc2ccc(OCC(=O)NN)cc12	-2.1	0.99
COCCNc1ncnc2c1sc1nc(N3CCOCC3)c3c(c12)CCC3	-0.7	0.31

(next part)
structure	Ab BasE inh	KSHV LANA nucl
CCOc1ccc(NC(=O)NC2CCN(c3ncccn3)CC2)cc1	1.1	-1.3
COc1ccc(F)cc1C(=O)CSc1nc2c3ccccc3ncn2n1	0.1	x
CC(Oc1ccc(-c2nnco2)cc1)C(=O)NC1(C#N)CCCCC1 (stereo unspecified)	0.5	x
Cn1c(=O)c(=O)n(C)c2ncccc21	4.4	0.046
CC(C)(C)c1ccc(S(=O)(=O)CCSc2nc3ccccc3s2)cc1	-1.2	x
CC1(C)CC(=O)C2=C(C1)Nc1[nH]n(-c3ccccc3)c(=O)c1C2c1cccs1 (stereo unspecified)	3.8	-0.65
CC(=O)OC[C@H]1OC[C@H](OC(C)=O)[C@@H](OC(C)=O)[C@H]1OC(C)=O	1.5	x
CCN1C(=O)C2Cc3cc(OC)c(OC)cc3CN2C1=S (stereo unspecified)	0.0	0.067
Cc1ccc(C(=O)n2ncn(C)c2=S)cc1	-1.4	x
CC(C)(C)c1ccc(O)c(N)c1	1.1	x
Cc1ccc(C)n1-c1ccc(C(=O)NCC(=O)O)cc1	2.0	x
N#Cc1ccc(NC(=O)C2CCC(C(=O)Nc3ccc(C#N)cc3)CC2)cc1 (stereo unspecified)	-1.0	-0.022
CCc1nn(CC(=O)NCCc2ccc(S(N)(=O)=O)cc2)c(=O)c2cc3sccc3n12	1.2	-0.2
Cn1ccnc1-c1nc2ccccc2n(CC(=O)OCc2ccc(C#N)cc2)c1=O	1.7	x
O=c1cc[nH]cc1-c1ccc(Cl)cc1	0.8	x
CC(C)CCNC(=O)c1cc(=O)c2ccccc2o1	-1.3	x
CN(C)/C=C1\C(=O)N(c2ccc(F)cc2F)C(c2cccnc2)S1(=O)=O (stereo unspecified)	1.3	-1
COc1cc(C(=O)Nc2ccccc2C(=O)N2CCCCC2)cc(OC)c1OC	2.3	-0.46
CCOC(=O)C1=C(CSc2n[nH]c(COc3ccc(C)cc3)n2)NC(=O)NC1C (stereo unspecified)	3.4	x
CC(C)Cn1c(-c2ccco2)csc1=Nc1cccnc1	-0.6	x
COC(=O)/C=C/S(=O)(=O)c1ccc(NC(C)=O)cc1	-0.4	x
S=C(NCCc1ccccc1)NC1CC1	-0.9	-0.099
O=C(Nc1cccc2ccccc12)OC1C=CS(=O)(=O)C1 (stereo unspecified)	-1.3	0.29
CC1CC(C)CN(C(=O)c2cc3c(s2)CCC3)C1 (stereo unspecified)	1.7	x
CCOC(=O)c1oc2ccc(Br)cc2c1CSc1nnc2ccccn12	-0.1	x
CCOC(=O)CSc1ccc2nnc(CCNS(=O)(=O)c3ccc(C)cc3)n2n1	2.8	0.33
Cn1c(SCC(=O)NCCN2C(=O)CSC2=S)nnc1C(F)(F)F	2.5	x
O=C(O)c1cc(-c2ccccc2)n[nH]1	1.2	-0.97
COC(=O)c1ccn(-c2nc(-c3ccco3)cc(C(F)(F)F)n2)n1	-0.6	0.006
